GALR2 agonist: agonists of human galanin receptor 2 (GALR2). O43603. GALR2-expressing cells, agonist activation read-out. activation, %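 (tested at 5 µM)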. actives 0.48% (n = 140,000);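 active = above mean plus 3 SD of all compounds, about 5% in these data, not always enough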;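 note: 0% = vehicle buffer wells and 100% = reference agonist at full effect; tested in CHO reporter cells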
Target sequence (O43603 whole entry, looked up): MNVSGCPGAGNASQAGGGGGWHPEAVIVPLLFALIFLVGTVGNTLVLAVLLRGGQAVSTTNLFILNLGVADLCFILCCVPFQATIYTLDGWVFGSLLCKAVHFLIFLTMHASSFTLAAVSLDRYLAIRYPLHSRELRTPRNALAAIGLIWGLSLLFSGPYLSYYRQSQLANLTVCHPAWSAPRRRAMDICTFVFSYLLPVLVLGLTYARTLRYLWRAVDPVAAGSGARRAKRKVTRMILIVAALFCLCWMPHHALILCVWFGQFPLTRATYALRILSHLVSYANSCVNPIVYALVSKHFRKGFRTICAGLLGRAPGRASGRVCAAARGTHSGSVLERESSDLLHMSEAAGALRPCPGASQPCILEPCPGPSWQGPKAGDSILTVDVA
HSV replic up: increases HSV replication in cells. HSV replication augmentation in cells, fold increase. maximum fold increase. actives 0.005% (n = 220,000). AID 1956;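 active = peak rise of 1.5-fold or more in the series; tested in PC3 cells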;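 note: first round at 10 µM; read as green reporter fluorescence; hits show the peak of a series up to 25 µM; 1 = signal of infected wells without compound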
PKD1 kinase inh: inhibitors of human PKD1 kinase | Q15139 | PKD1 kinase fluorescence polarization assay | inhibition, %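 (about 10 µM by stock and volumes)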 | actives 0.056% (n = 200,000) | AID 797;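 active = inhibition of 50% or more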;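 note: controls were vehicle for no effect and a reference inhibitor for full effect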
Insulin prom inh: TRM-6 insulin promoter activity inhibition | TRM-6 cells (human fetal islet line), insulin promoter-eGFP reporter, imaging; reporter expression induced with tamoxifen | inhibition, % at 2 µM | actives 0.9% (n = 130,000);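 active = inhibition above the mean plus 3 SD, with well images judged a real hit on visual review, cut at about 60% in these data, passing the limit was not always enough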
RGS16-Gao: modulates binding between human RGS16 and Galphao. O15492+P09471. bead-based flow cytometry RGS16-Galphao binding, fluorescence; actives lie on both sides. binding response (% of control), % at 10 µM. actives 0.38% (n = 220,000);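 active = below 25% or above 175%, edge rows of some plates excepted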;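 note: Galphao activated by GDP with aluminum fluoride before binding; 100% = wells without compound and 0% = beads without RGS; some results beyond the cut were filed as inactive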
Target sequence (O15492 whole entry, looked up): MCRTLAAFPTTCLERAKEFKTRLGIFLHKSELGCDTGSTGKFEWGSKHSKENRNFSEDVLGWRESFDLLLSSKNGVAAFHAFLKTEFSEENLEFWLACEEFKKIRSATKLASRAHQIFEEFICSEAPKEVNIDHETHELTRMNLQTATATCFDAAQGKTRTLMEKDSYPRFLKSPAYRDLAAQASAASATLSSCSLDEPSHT
Target sequence (P09471 whole entry, looked up): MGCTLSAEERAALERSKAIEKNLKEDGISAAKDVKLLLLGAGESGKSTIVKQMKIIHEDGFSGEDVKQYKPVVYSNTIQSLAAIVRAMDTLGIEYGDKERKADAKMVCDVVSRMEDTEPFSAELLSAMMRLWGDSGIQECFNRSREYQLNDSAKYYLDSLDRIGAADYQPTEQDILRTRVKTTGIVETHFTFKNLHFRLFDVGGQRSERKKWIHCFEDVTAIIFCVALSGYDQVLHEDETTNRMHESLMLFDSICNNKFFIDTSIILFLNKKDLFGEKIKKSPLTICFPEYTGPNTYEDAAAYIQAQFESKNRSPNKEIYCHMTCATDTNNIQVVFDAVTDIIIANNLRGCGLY
Insulin prom inh cell count: further read-out of Insulin prom inh, marked with its call; normalized cell count, %; measured here: cell count, toxicity; reference of the scale not given here;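 cells exposed to compound for 48 h; stained nuclei by imaging scaled within each plate; lower means fewer cells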
HSV replic up primary fold: also measured in HSV replic up; calls as there; fold increase; compound at 10 µM; measured here: primary screen fold increase 10 uM; tested in PC3 cells;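 GFP signal in the first replicate; 1 = infected wells without compound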
* = called active by the depositor; i = inactive; nt = not tested or not shown; & = joins results of further samples.

cpd	Compound	GALR2 agonist	HSV replic up	HSV replic up primary fold	PKD1 kinase inh	Insulin prom inh	Insulin prom inh cell count	RGS16-Gao
1	O=C(c1ccc(COc2ccccc2Cl)o1)N1CCN(Cc2ccc3c(c2)OCO3)CC1	-1.6	i	1.1&0.86	3&4	19	96	99&102
2	COc1ccc(O)c(/C=N/NC(=S)Nc2cccc(S(=O)(=O)N(C)C)c2)c1	-1.5	i	0.73	-2	30	87	120
3	Cc1c(Cl)c(C(F)(F)F)nn1CC(=O)NCc1ccco1	nt	i	1	-8	-35	76	108
4	Cc1nn(-c2ccccc2)c(Cl)c1C(=O)NCCN(C)C	nt	i	0.98	6	nt	nt	102
5	Clc1ccc(CSc2nccn2Cc2ccccc2)cc1	-0.3	i	0.9	-8	-3	102	101
6	Cc1cccc(S(=O)(=O)c2c(N)n(-c3ccccc3)c3nc4ccccc4nc23)c1	0.2	i	0.91	-6	-37	84	100
7	COc1ccc(NCc2nnc(SCC#N)n2-c2ccccc2OC)cc1	-0.6	i	0.98	-1	nt	nt	94
8	CS(=O)(=O)c1ccc2nc(NC(=O)CN3C(=O)C4CC=CCC4C3=O)sc2c1 (stereo not drawn)	nt	i	1.1	-4	nt	nt	102
9	CC(=O)c1cccc(-n2nnnc2SCC(=O)Nc2cccc(NC(=O)c3ccco3)c2)c1	-1.8	i	0.89	-12	nt	nt	102
10	COc1ccc(S(=O)(=O)N2CCCCC2)cc1NCC(=O)Nc1ccc(C)cc1	nt	i	0.96	nt	nt	nt	101
11	O=C(Nc1ccc2c(c1)OCO2)C(c1ccccc1)N1CCN(C(=O)c2ccco2)CC1 (stereo not drawn)	-1.6	i	0.77	-6	-19	120	101
12	Cc1ccccc1N(C(=O)Cn1nnc(-c2cccs2)n1)C(C(=O)NCCC(C)C)c1ccco1 (stereo not drawn)	0.3	i	1	-4	11	121	98
13	NC1=NC[C@H](c2ccccc2)N1CCc1cc(C(F)(F)F)cc(C(F)(F)F)c1	nt	i	0.63	nt	nt	nt	101
14	O=C(CCn1cnnn1)Nc1ccc(F)cc1	nt	i	0.98	-2	nt	nt	107
15	Cc1cc(C)n2c(SCCN3C(=O)c4ccccc4C3=O)nnc2n1	-1.9	i	1.3	2	nt	nt	nt
16	CCCCN1CCCC1CNC(=O)c1cc(C#N)c2ccccc2c1OC (stereo not drawn)	nt	i	0.86	nt	nt	nt	102
17	Cc1cc(NC(=O)CSc2nnc(NC(=O)C3CC(=O)N(c4ccccc4)C3)s2)no1 (stereo not drawn)	-0.9	i	1.1	9	-37	76	176
18	Cc1sc(NC(=O)c2oc3ccccc3c2C)c(C#N)c1C	-0.9	i	0.77	-12	-24	130	90
19	Cc1ccc(Cl)c2c1NC(=O)C2(O)CC(=O)c1ccccc1O (stereo not drawn)	-1.3	i	0.94	-2	40	90	101
20	Cn1nc([N+](=O)[O-])nc1Oc1ccccc1F	nt	i	0.97	-2	nt	nt	100
21	CN(C(=O)NC1CCCCC1)c1ccccc1	nt	i	1	3	nt	nt	100
22	COCCn1c(SCC(N)=O)nnc1-c1c[nH]c2ccccc12	-3.7	i	1	-17	nt	nt	97
23	NS(=O)(=O)c1ccc(CCNC(=O)Cc2ccccc2[N+](=O)[O-])cc1	nt	i	1.1	-7	nt	nt	100
24	COc1ccccc1-c1coc2cc(O)cc(O)c2c1=O	-0.8	i	0.97	2	11	160	110
25	CCc1ccc(C(=O)NCc2ccc(Cl)cc2Cl)cc1	-1.0	i	1	-3	62	48	93

Complete entries from above. Order of values: GALR2 agonist, HSV replic up, HSV replic up primary fold, PKD1 kinase inh, Insulin prom inh, Insulin prom inh cell count, RGS16-Gao
CCc1ccc(C(=O)NCc2ccc(Cl)cc2Cl)cc1 is listed as -1.0, i, 1, -3, 62, 48, 93
Cc1c(Cl)c(C(F)(F)F)nn1CC(=O)NCc1ccco1 is listed as nt, i, 1, -8, -35, 76, 108

Next entries
cpd	Compound	GALR2 agonist	HSV replic up	HSV replic up primary fold	PKD1 kinase inh	Insulin prom inh	Insulin prom inh cell count	RGS16-Gao
26	N=C1C(c2nc3ccccc3c(=O)[nH]2)=C(O)CN1c1ccccc1	-0.2	i	0.65	-4	-11	60	109
27	CCOC(=O)c1c(-c2cccs2)csc1NC(=O)CN(CC)CC	1.0	i	0.87	-3	0	64	38
28	CS/C(N)=N/N=C/c1ccc2c(c1)OCO2	nt	i	1	nt	nt	nt	95
29	CCC(Oc1cc(Cl)ccc1Cl)C(=O)NNC(=O)CCC(=O)O (stereo not drawn)	-1.2	i	0.97	-1	-6	93	13*
30	C#CCOCCOCCOCCNc1nc(N2CCN(C(=O)[C@H](CCC(=O)O)n3cc(C(N)[C@H](C)CC)nn3)CC2)nc(N2CCN(C(=O)[C@H](CCC(=O)O)n3cc(C(N)[C@H](C)CC)nn3)CC2)n1 (stereo partly drawn)	nt	i	0.82	-4	nt	nt	92
31	Cc1ccc(-c2nn(C)c(=O)c3ccccc23)cc1S(=O)(=O)N1CCCC1	-3.5	i	0.62	-5	nt	nt	101
32	O=C(O)CC1(CC(=O)NCc2ccncc2)CCCCC1	nt	i	1.3	nt	nt	nt	99
33	FC(F)(F)c1ccc2c(c1)[nH]c(=S)n2C1CC1	nt	i	0.91	-11	0	79	113
34	CC(C)(C)n1ncc2c(=O)n(CC(=O)N3CCCCC3)cnc21	nt	i	0.73	5	21	121	100
35	NC(=O)COc1ncnc2scc(-c3ccc(F)cc3)c12	nt	i	0.9	-9	nt	nt	100
36	CCC(C)(C)n1nnnc1C(c1cc2cc(OC)ccc2[nH]c1=O)N1CCc2ccccc21 (stereo not drawn)	-2.1	i	0.81	-1	-57	167	106
37	CCCSc1nnc(NC(=O)c2ccco2)s1	nt	i	1.1	6	42	64	104
38	O=C(Nc1ccon1)c1cc(-c2ccccc2)nc2ccccc12	-4.5	nt	nt	-3	40	75	101
39	C=CCN1C(=O)C(Cc2ccc(Br)cc2)S/C1=N\N=C\c1ccco1 (stereo not drawn)	-1.2	i	0.88	-3	nt	nt	100
40	Nc1nc(-c2ccc(Cl)cc2)nc(-c2ccc(Cl)cc2)n1	nt	i	0.81	nt	nt	nt	100
41	O=C(Oc1ccc(N(C(=O)c2ccncc2)S(=O)(=O)c2ccc(Cl)cc2)cc1)c1ccncc1	nt	i	0.86	-5	nt	nt	107
42	Cc1ccc(S(=O)(=O)N(CC(=O)Nc2cccc([N+](=O)[O-])c2)C2CCCCC2)cc1	-1.4	i	1	-6	-3	104	99
43	COc1ccc(S(=O)(=O)NC(C)C(=O)Nc2ccccc2F)cc1 (stereo not drawn)	-1.5	i	1	-6	-6	98	98
44	Cc1ccc(S(=O)(=O)c2cccc(S(=O)(=O)N3CCCC3)c2)cc1S(=O)(=O)N1CCCC1	-0.1	i	0.86	-9	-26	79	101
45	Oc1oc(-c2ccccc2)nc1C=NCc1ccccc1	-0.7	i	0.56	0	-3	158	105
46	Cc1ccc(C(=O)c2cnc3cc4c(cc3c2S(=O)(=O)c2ccccc2)OCCO4)cc1	-1.0	i	0.68	-3	16	99	100
47	O=C1CC(SCc2nc3ccccc3[nH]2)C(=O)N1c1cccc(Cl)c1 (stereo not drawn)	-1.1	i	0.73	-6	8	168	102
48	CCOCCn1c(SCC)nc2c1c(=O)[nH]c(=O)n2C	-2.1	i	0.89	-1	15	116	79
49	O=C(Nc1ccc(NC(=O)c2cccs2)cc1)c1cccnc1	nt	i	0.97	-8	nt	nt	104
50	C=CCn1c(SCC(=O)c2[nH]c(C)c(C(=O)OCC)c2C)nc2scc(-c3ccccc3)c2c1=O	-0.1	i	0.53	-2	-9	149	105
51	COc1ccc(Cl)cc1NC(=O)C(=O)NCc1ccncc1	nt	i	0.91	0	12	82	100
52	CSCCNCc1c(C(=O)N2CCOCC2)nc2c(C)cccn12	nt	i	1	4	nt	nt	97
53	CCOc1cc(NC(=S)Nc2ccc(Cl)cc2)c(OCC)cc1NC(C)=O	nt	i	0.83	-1	nt	nt	107
54	CCN(CC)c1ccc(NC(=S)NCC2CCCO2)cc1 (stereo not drawn)	nt	i	1.2	-6	nt	nt	106
55	COc1ccc(C(C(=O)NC2CCCC2)N(Cc2ccccc2)C(=O)c2nsc(Cl)c2Cl)cc1 (stereo not drawn)	0.0	i	0.89	-5	nt	nt	87
56	CC(C)c1cc(CNC(=O)CCc2nnc(CCCCc3ccccc3)o2)on1	nt	i	1	nt	nt	nt	100
57	O=C(c1ccc(Br)o1)N1CCN=C1SCc1cccnc1	-1.8	i	0.93	-6	nt	nt	110
58	Cc1c(C#N)c(N)nc(Cl)c1C#N	nt	i	0.86	115*	38	101	103
59	Cc1ccc(OCC(=O)N2CCCCC2)c(Br)c1	-3.2	i	0.95	-8	-16	85	96
60	CN1CCC(NC(=O)Nc2ccc(Br)cc2)CC1	nt	i	0.8	nt	nt	nt	101
61	Cc1ccc2nc(NC(=O)CCCc3nc4ccccc4s3)sc2c1	-1.8	i	1	7	23	79	85
62	CCN(CC)c1nc2n(c(=O)n1)CCO2	-1.6	i	1	-3	nt	nt	103
63	Cc1nn(C)cc1C(C)Nc1nc2nonc2nc1N1CCCCC1 (stereo not drawn)	nt	i	1.1	1	nt	nt	101
64	O=C(Cc1cccs1)OCC(=O)c1ccco1	-1.7	i	1.1	8	35	91	89
65	CC1CCN(c2ccc([N+](=O)[O-])cc2C(N)=O)CC1	nt	i	0.96	-6	nt	nt	114
66	CCN(CC)c1ccc(/C=N/NS(=O)(=O)c2ccc(C)c([N+](=O)[O-])c2)cc1	-1.7	i	1.1	-3	nt	nt	68
67	Cc1ccc([N+](=O)[O-])cc1N	nt	i	1.1	-1	nt	nt	100
68	CC(=O)Nc1cccc(Nc2nc(-c3ccccc3)nc3ccccc23)c1	nt	nt	nt	7	21	161	103
69	Cc1ccc(OCc2ccc(C(=O)Nc3ccc(C(N)=O)cc3)o2)c([N+](=O)[O-])c1	nt	i	1.1	-2	nt	nt	107
70	Cn1cccc1Cc1nnc(SCC(=O)NCCc2ccccc2)n1C	nt	i	0.92	-1	nt	nt	100
71	CC(C)CC(C)c1cc(N)nc2nc3ccccc3n12 (stereo not drawn)	nt	i	0.94	8	43	66	102
72	CCCCCOc1ccc(C2C(C(C)=O)=C(C)Nc3ncnn32)cc1OC (stereo not drawn)	-0.5	nt	nt	9	nt	nt	128
73	O=C(Cc1ccccc1)Nc1ccc(-c2nnc(-c3ccco3)o2)cc1	1.2	i	1.1	3	18	126	97
74	COC(=O)[C@@H]1C[C@H]2CC[C@H](O)C[C@H]2N1Cc1ccc(C(F)(F)F)cc1	nt	i	0.98	nt	nt	nt	103
75	CN(C)C(=O)Nc1cnc2ccccc2c1	-1.6	i	0.96	-5	45	49	97

Continued.
cpd	Compound	GALR2 agonist	HSV replic up	HSV replic up primary fold	PKD1 kinase inh	Insulin prom inh	Insulin prom inh cell count	RGS16-Gao
76	COc1ccc(OC)c(NC(=O)CCNS(=O)(=O)c2ccc3c(c2)c(=O)n(C)c(=O)n3C)c1	nt	i	0.78	-5	nt	nt	99
77	Cc1ccc(-n2nc(C)c(C3(O)C(=O)N(C)c4ccccc43)c2N)cc1 (stereo not drawn)	-1.1	i	0.96	3	29	122	97
78	N/C(=N\OC(=O)Cc1ccc(-c2ccccc2)cc1)c1ccccn1	-0.9	i	1	3	44	156	115
79	CCCCNc1oc(-c2cccs2)nc1S(=O)(=O)c1ccccc1	-1.8	i	1.3	-6	-13	110	96
80	Cn1c(=O)n(C)c2cc(S(=O)(=O)NCc3ccco3)ccc21	-1.1	i	0.89	-5	22	35	114
81	CC(=O)C1=C(C)OC(N)=C(C#N)C1c1cc2cc(C)c(C)cc2nc1Cl (stereo not drawn)	-1.4	i	0.92	1	-21	128	103

Screening results: PubChem BioAssay, several laboratories
